BJeLR lethal: kills HRASV12-expressing BJeLR cells. BJeLR (HRASV12) viability, CellTiter-Glo ATP luminescence, 48 h; reference of the scale not given here. inhibition, % (concentration not given with the values). 300,000 compounds, 0.17% hits. AID 1554;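 active = replicate mean above 50%; inconclusive = above 50% but judged a plate artefact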;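 note: 50 nL library stock added to about 25 µL; numbers are from one replicate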
Sa RN4220 lethal: kills Staphylococcus aureus RN4220; S. aureus RN4220 growth, OD600, 16 h; inhibition, % (concentration not given with the values); 330,000 compounds, 0.33% hits; AID 1259311;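 active = z-score of -3 or lower and OD600 up to 0.18 on both plates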;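 note: plate controls were untreated cells for no effect and reference antibiotic for full effect; stock transfer was 100 nL into about 80 µL; one replicate is shown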
PrP UTR inh: suppresses PrP 5' UTR mRNA reporter expression; cell-based PrP 5' UTR mRNA reporter, plate reader; inhibition, % (no concentration beside the values); 340,000 compounds, 0.35% hits; AID 488862;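 active = every replicate at 50% or more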;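 note: 0 = median of the neutral control wells; tested in H4 reporter cells; numbers are from one replicate; inactives centre near -14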
Autofluor counter: flagged as autofluorescent in microsphere protease counterscreen | compound autofluorescence counterscreen, microsphere flow cytometry; stronger effect = higher value | fluorescence intensity (test concentration not listed) | 360,000 compounds, 3.1% hits;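 active = at least 3 SD above the mean of all compounds, about 16000 in these data; inconclusive = too few beads counted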;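 note: 100 nL of 1 mM stock went into each well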
Mtb hypoxia inh: Mtb hypoxia fluorescent reporter inhibition; M. tuberculosis hypoxia-regulated fluorescent reporter, fluorescence; fluorescence inhibition, % (no concentration beside the values); 300,000 compounds, 0.1% hits; AID 1159583;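 active = 35 to 45% if threefold the growth effect, above 45% if 1.5-fold the growth effect; inactive = the rest, general growth blockers included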;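 note: wells of about 50 µL received 100 nL stock; 0% = vehicle wells and 100% = reference inhibitor wells; whole bacteria with a GFP reporter of the hypoxia response; strong numbers were not always called active; many hits fall short of the cut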
ugtP null kill: growth inhibition of S. aureus ugtP deletion strain. 330,000 compounds, 0.54% hits. S. aureus RN4220 ugtP deletion, OD600 growth, 16 h; some inactives read as strong as hits. growth inhibition, % (test concentration not listed). AID 1259309;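 active = z-score under -3 and OD600 up to 0.15 on both plates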;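 note: plate controls were untreated wells for no effect and antibiotic for full effect; wells of about 80 µL received 100 nL stock; the first replicate is given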
Mtb hypoxia inh growth: recorded beside Mtb hypoxia inh, whose call it bears; growth inhibition, %; measured here: M. tuberculosis growth (absorbance);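 0% = vehicle and 100% = reference antibiotic; read after six days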
* marks the source's active call; other numbers are inactive results; ? = inconclusive; · = no result given; & = joins results of further samples. This is a random part of the collection (roughly 4% active in at least one column).

SMILES	BJeLR lethal	Sa RN4220 lethal	PrP UTR inh	Autofluor counter	Mtb hypoxia inh	Mtb hypoxia inh growth	ugtP null kill
COc1ccc(C2CC(=O)C=C(c3cccc(OCc4ccccc4)c3)C2)cc1 (centres undefined)	·	3.9	·	·	4	8	3
Cc1nnc(NC(=O)C23CC4CC(CC(C4)C2)C3)s1	-11	3.2	-26	3339	-3	2	6
CCOC(=O)CNC(=O)C1(NC(=O)CNC(=O)OCc2ccccc2)CCCC1	·	2.7	-9	4051	4	10	6
O=C(CN1C(=O)NC2(CCCC2)C1=O)N1CCc2ccccc2C1	-6	0.4	-15	2161	11	6	0
CCCc1nnc(NS(=O)(=O)c2ccc(OC)cc2)s1	3	·	-7	3517	·	·	·
CCOc1ccc2noc3c2c1C(=O)c1ccccc1-3	8	·	-28	10670	·	·	·
O=C(CSCc1ccccc1)N/N=C/c1ccc(OCC(=O)N2CCCCC2)cc1	0	·	-16	2390	·	·	·
O=C(NC1CCCC1)C1=COCCO1	-10	0.5	-12	3211	·	·	8
COC(=O)C1=C(C)NC2=C(C(=O)CC(C)(C)C2)C1c1ccsc1 (centres undefined)	1	-1.2	-25	2061	·	·	-1
Cc1ccc(N(CC(=O)NN=Cc2cc(C)n(-c3ccccc3C)c2C)S(C)(=O)=O)cc1	·	4.7	·	·	7	5	-8
CCCCCOC(=O)C(C)c1c(C)[nH]c(=S)[nH]c1=O (centres undefined)	4	-5.7	-20	3134	8	15	-3
CCC(=O)c1ccc(OC(=O)/C=C/c2cc(OC)c(OC)c(OC)c2)cc1	-4	0.8	-17	3500	4	8	10
COc1ccc(C)cc1NC(=O)C(C)N1CCOCC1 (centres undefined)	22	3.9	-23	3628	0	11	3
Cc1ncc([N+](=O)[O-])n1S(=O)(=O)c1cc(Br)ccc1Br	-2	0.8	-39	3566	15	-2	-3
O=[N+]([O-])c1cc2c(cc1/C=N/Nc1nc(Nc3ccccc3)nc(N3CCCCC3)n1)OCO2	-14	·	-58	8852	·	·	·
COC(=O)COc1ccc2c(-c3ccc(OC)cc3)cc(=O)oc2c1	-1	2.3	-3	2113	·	·	-5
O=C(CCC1CCCN(C(=O)Cn2cnnn2)C1)NCc1ccccc1F (centres undefined)	4	11	-11	3861	-5	4	6
COc1ccc(C2C(C(=O)O)CCC(=O)N2c2ccc(C)cc2)cc1OC (centres undefined)	26	0.6	-7	4391	12	0	7
O=C(CC1C(=O)NCCN1CC1CCCCC1)NCCCN1CCOCC1 (centres undefined)	2	0.2	-13	5693	14	-5	10
CCCNC1C(=O)N2C(C(=O)OCCC)=C(C)CSC12 (centres undefined)	·	1.6	·	·	-9	5	-1
COc1ccc(C(c2nnnn2CS(=O)(=O)c2ccc(C)cc2)N2CCN(Cc3ccccc3)CC2)cc1 (centres undefined)	-5	-0.1	-21	4894	0	19	-2
CCOC(=O)/C(C#N)=C1/C=Nc2ccccc2N1	8	5.6	-15	5248	-3	8	-13
CN(C(=O)c1ccc(NC(=O)Cc2cccc(NC(=O)C3CCN(C(=O)C4CCCC4)CC3)c2)cc1)C1CC1	·	2.4	10	3575	-8	2	0
CC(C)n1c(SCc2ccc(Cl)cc2)nc2c1c(=O)[nH]c(=O)n2C	-6	0.1	13	4817	·	·	20
CCOC(=O)C(NC(=O)CCC(=O)Nc1ccc(S(N)(=O)=O)cc1)C(O)c1ccccc1 (centres undefined)	4	3.2	-27	·	12	16	0
O=C(O)c1ccoc1CN1CCCCC1	-8	6.0	-29	8740	10	7	-6
COc1cc(Cl)cc(C(=O)O)c1OCC(=O)O	-1	3.9	-34	5002	-1	0	5
CC(C)C(C(=O)NCc1ccco1)N(C(=O)CNS(=O)(=O)c1ccccc1)c1ccccc1 (centres undefined)	1	0.1	-10	4881	5	-2	1
Cc1cc(S(=O)(=O)N2CCCC2)ccc1OCC(=O)N1CCOCC1	6	3.0	-19	11285	7	6	3
CC1(C)CC(CC(=O)NNc2nc(-c3ccccc3)cs2)C(=O)O1 (centres undefined)	4	5.3	-13	2393	20	7	15
Fc1cccc(CSc2ncnc3c2ncn3C2CCCCO2)c1 (centres undefined)	·	-1.7	-29	4030	13	16	6
COCCNC(=O)CSc1nc2sccc2c(=O)n1-c1ccccc1	-9	1.2	-8	3860	7	-6	0
COc1ccc(-c2sc3ccccc3c2-c2ccc(OCCN3CCOCC3)cc2)cc1	·	-2.7	-6	3592	0	4	32
COCC(=O)N1CCC(Oc2ccc(C(=O)N3CCCCC3COC)cc2)CC1 (centres undefined)	4	2.2	-8	4590	4	-2	3
CCCn1c(SCC(=O)NC2CCCC(C)C2C)n[nH]c1=O (centres undefined)	10	-0.8	-8	3348	4	9	-1
CC(C)NC(=S)N(C)C1(c2ccccc2Cl)CCCCC1=O (centres undefined)	6	1.3	-17	2733	7	-2	8
CC12CC3(C)CC(C)(C1)CC(C(=O)Nc1nn[nH]n1)(C2)C3	-11	17	-14	8014	2	2	5
COc1ccc(CC(=O)Nc2ccccc2-c2ccccc2)cc1OC	8	1.5	-19	5263	9	9	8
COc1ccccc1OCC(=O)Nc1ccc(O)cc1C(=O)O	-2	3.0	-7	2723	·	·	7
O=C(NCC(c1ccco1)N1CCN(c2ccc(F)cc2)CC1)c1ccco1 (centres undefined)	-3	2.5	-21	6557	6	2	7
Cc1ccc(C)c(N2CCN(C(=O)Cn3c(=O)oc4cc(S(=O)(=O)N5CCCC5)ccc43)CC2)c1	29	-1.5	-15	5418	-3	8	1
O=[N+]([O-])c1ccc(N2CCN(c3ccc(F)cc3)CC2)cn1	-12	1.9	-41	4015	11	7	3
CC(=O)N1CCOc2ccc(S(=O)(=O)N(C)c3cccc(C)c3)cc21	1	4.0	-25	5991	1	-9	6
COc1ccccc1C(CNC(=O)c1ccc(C)c(S(=O)(=O)N2CCCCC2)c1)N(C)C (centres undefined)	·	0.8	-25	5061	1	4	1
Cc1nn2c(COc3ccc(NC(=O)c4ccccc4)cc3)nnc2c2ccccc12	3	1.1	-20	2948	0	8	6
CC(=NNC(=O)CSc1nc2ccccc2s1)c1ccco1	·	-5.9	·	·	7	9	-6
CCOc1ccc(/C=N/Nc2cc(N3CCOCC3)nc(C)n2)c(O)c1	-5	·	-8	2341	·	·	·
Cc1ccc(C(=O)OCC(=O)Nc2ccccc2Cl)c(O)c1	2	6.2	-5	3794	12	11	5
COc1cc2cc(CCCOC(=O)c3ccc(C(F)(F)F)cc3)oc(=O)c2cc1OC	·	9.4	-16	4138	14	3	-1
COc1ccc(Cc2noc(CN3CCCN(Cc4ccc(F)cc4)CC3)n2)cc1OC	-6	2.7	-18	2325	9	2	1
COc1ccccc1NC(=O)COC(=O)c1ccc([N+](=O)[O-])s1	3	-0.1	-16	4237	-4	0	-4
CCCNC(=O)C/C(C)=N/NC(=O)C(=O)Nc1ccccn1	6	·	-25	4744	·	·	·
COc1ccccc1CNC(=O)C(=O)NCC1OCCN1S(=O)(=O)c1ccccc1 (centres undefined)	-5	0.4	-19	7137	0	-3	0
Cn1ccnc1P(=S)(c1nccn1C)c1nccn1C	-3	2.1	9	9087	-6	-10	0
CCOC(=O)NN=Cc1ccc(F)cc1	·	-2.3	·	·	3	14	0
COc1ccc(C2NC(=O)CCC2[N+](=O)[O-])c(OC)c1 (centres undefined)	7	·	-49	3863	·	·	·
COc1cccc(/C=C/C(=O)NNC(=O)c2ccncc2)c1	18	7.5	-24	6913	22	5	3
COc1ccc(NC(=O)c2nc[nH]c2C(=O)N(C)Cc2ccccc2)cc1	3	5.9	-8	4225	7	5	9
Cc1c(O)c(CN2CCCCC2)cc2c3c(c(=O)oc12)CCC3	-5	8.9	-19	?	-3	7	-17
Cc1ccc(SCCC(=O)NN=Cc2cccnc2)cc1	·	0.0	·	·	2	3	10
Following part
SMILES	BJeLR lethal	Sa RN4220 lethal	PrP UTR inh	Autofluor counter	Mtb hypoxia inh	Mtb hypoxia inh growth	ugtP null kill
Cc1cccc(NC(=S)NN=Cc2cccn2Cc2ccc(F)cc2)c1	·	36	·	·	5	3	-6
COC(=O)CN1C(=O)C2C(C3CC3)N3C(=O)CN(CCO)C(=O)[C@@]3(Cc3ccccc3)C2C1=O (some centres undefined)	·	5.2	·	·	5	7	4
COc1ccc(C2NC(C(=O)O)Cc3c2[nH]c2ccccc32)cc1CN1CCN(c2ccc(F)cc2)CC1 (centres undefined)	-3	3.4	-8&-11	5980	·	·	4
N/C(=N\N=C/c1ccc(F)cc1)N/N=C\c1ccc(F)cc1	7	·	-41	4210	·	·	·
CCN(CC(=O)Nc1ccc2c(c1)OCCO2)C(=O)c1ccc(C)c(S(=O)(=O)N2CCOCC2)c1	0	1.5	-34	5824	1	-3	7
COCC(C)NC(=O)c1ccc2c(c1)S(=O)(=O)c1ccccc1C2=O (centres undefined)	-3	3.0	-8	5605	1	7	9
C#CCOc1ccccc1CNc1ccccc1	-10	2.2	-16	2198	-1	9	1
Cc1ccc(S(=O)(=O)n2nc(C)cc2N)cc1	-4	5.1	-8	5259	6	1	1
COc1ccc(C2C=CCN(S(=O)(=O)c3ccc(C)cc3)C(C)C(=O)N2Cc2ccc(F)cc2)cc1 (centres undefined)	·	7.3	·	·	4	-8	17
O=S(=O)(Cc1ccccc1)Nc1ccccc1	-7	1.8	15	3618	21	9	5
O=C(O)COc1ccccc1/C=N/NC(=O)c1cccc(S(=O)(=O)N2CCOCC2)c1	-1	·	-8	4251	·	·	·
Cc1cc([N+](=O)[O-])nn1CCCC(=O)Nc1cccc(Cl)c1Cl	4	5.5	-19	4322	1	1	11
O=C(Cc1cccs1)N(Cc1ccco1)C1(C(=O)NC2CCCCC2)CCCCC1	-6	-0.2	-3	4135	6	6	-3
Cc1ccc(C(=O)N/C(=C\c2cccc([N+](=O)[O-])c2)C(=O)NCc2ccncc2)cc1	4	-0.3	-17	2104	4	4	17
CC(=O)Nc1ccc(C(=O)NNC(=O)Cc2ccccc2)cc1	-5	7.6	-6	2550	3	5	-2
COc1cccc(/C=C(\C#N)c2nc3ccccc3[nH]2)c1OCC(=O)O	0	0.6	-8	3120	4	-5	12
CN=C1S/C(=C\c2ccc(O)c(Br)c2)C(=O)N1C	9	7.9	-19	3962	0	-2	-7
COc1ccc(OCCC(=O)Nc2ccc(S(N)(=O)=O)cc2)cc1	-5	3.8	-23	3202	-4	1	5
CN(C(=O)COC(=O)C1CCN(S(=O)(=O)c2ccc3c(c2)OCCO3)CC1)C1CCS(=O)(=O)C1 (centres undefined)	5	2.9	-10	6080	5	11	5
O=C(CCC1CCCCC1)NCCS(=O)(=O)N1CCN(c2ccccc2)CC1	-4	-0.1	-10	5949	0	11	-3
CC(=NOCC(=O)NN=Cc1ccccc1)c1cccs1	·	-2.8	·	·	0	-5	0
Cc1ccc(NC(=O)c2cc(=O)[nH]c3ccc(S(=O)(=O)N4CCOCC4)cc23)nc1	7	2.5	-32	?	-3	-1	-1
CCc1cc2c3c(c1)C1(C(=O)N3C(C)(C)C=C2C)C(C#N)=C(N)Oc2[nH]c(=O)[nH]c(=O)c21 (centres undefined)	3	85	-25	4243	12	6	24

Looked up by structure from the entries so far, 7 records:
SMILES	BJeLR lethal	Sa RN4220 lethal	PrP UTR inh	Autofluor counter	Mtb hypoxia inh	Mtb hypoxia inh growth	ugtP null kill
COc1ccc(OCCC(=O)Nc2ccc(S(N)(=O)=O)cc2)cc1	-5	3.8	-23	3202	-4	1	5
O=C(CCC1CCCCC1)NCCS(=O)(=O)N1CCN(c2ccccc2)CC1	-4	-0.1	-10	5949	0	11	-3
CCc1cc2c3c(c1)C1(C(=O)N3C(C)(C)C=C2C)C(C#N)=C(N)Oc2[nH]c(=O)[nH]c(=O)c21 (centres undefined)	3	85	-25	4243	12	6	24
COc1cccc(/C=C(\C#N)c2nc3ccccc3[nH]2)c1OCC(=O)O	0	0.6	-8	3120	4	-5	12
Cc1ccc(NC(=O)c2cc(=O)[nH]c3ccc(S(=O)(=O)N4CCOCC4)cc23)nc1	7	2.5	-32	?	-3	-1	-1
CN=C1S/C(=C\c2ccc(O)c(Br)c2)C(=O)N1C	9	7.9	-19	3962	0	-2	-7
CC(=NOCC(=O)NN=Cc1ccccc1)c1cccs1	·	-2.8	·	·	0	-5	0

Compound activity (PubChem)
